Screens (PubChem)
NPYLR7 agonist – activates Aedes aegypti NPYLR7 receptor. HEK293T NPYLR7/Galpha15, GCaMP6s calcium fluorescence. activation, % at 10 µM. 0.15% of 270,000 active. AID 1259423; in the data active = activation above about 40%;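 also: 0% = vehicle and 100% = reference agonist at the receptor; some compounds past the cut are filed as inactive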
NPYLR7 agonist max-min – also measured in NPYLR7 agonist; calls as there; activation, %; measured here: Max-Min RFU normalised activation; some inactives read as strong as hits;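 span of the calcium signal over five minutes; 0% = vehicle and 100% = native peptide agonist; compound fluorescence can raise it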
Numbers without * were called inactive; & = joins results of further samples. An excerpt; the hit share may differ from the screen's.

Values run as follows: NPYLR7 agonist, NPYLR7 agonist max-min
CCSCCNC(=O)c1sc2c(Cl)c(Cl)ccc2c1Cl
    3, 4
O=C(/C=C/c1cccs1)N(Cc1ccccn1)c1nc2c(F)cccc2s1
    1, 0
COc1ccc(-c2cccc(-c3cccc(NC(=O)Cc4ccc(F)cc4)c3)n2)cc1
    15, 23
Cc1csc(-c2cc3ccc(O)c(CN4CCN(CCO)CC4)c3oc2=O)n1
    69*, 58*
CCOc1ccc(OCCCOc2ccccc2OC)cc1
    2, 39
CC(=O)c1cccc(OCC(=O)NC(c2ccccc2)C2CC2)c1 (stereo not drawn)
    -6, -10
Cc1ccc(Nc2cc(C)nc3c4c(C)cc(C)nc4nn23)cc1
    2, 18
COc1ccc(C)cc1-n1nnnc1SCCn1c(C)csc1=O
    15, 14
COc1ccc(CCNC(=O)c2cc(Br)ccc2NS(=O)(=O)c2ccc(OC)cc2OC)cc1
    21, 11
CCOc1ccc(-c2cc3c(=O)n(CC(=O)NCCc4ccccc4)ccn3n2)cc1
    26, 19
COc1ccc(/C=C/C(=O)NCCSc2ncc(-c3ccccc3)[nH]2)cc1OC
    1, -1
CN(C)CCN(C)C1CCCN(C(=O)c2cnc3c(c2)nnn3C)C1 (stereo not drawn)
    5, 2
COCCn1c(CN(Cc2ccccc2)Cc2ccccc2)nc2c1c(=O)n(C)c(=O)n2C
    -7, -11
CCN(CC)S(=O)(=O)c1cc(C)cc(S(=O)(=O)c2ccc(Cl)cc2)c1C
    -5, -6
Cc1cccc(CSCc2csc(Cc3ccc4c(c3)OCO4)n2)c1
    24, 18
Cc1ccc(S(=O)(=O)N(C)C(=O)NC(=O)Nc2ccc(S(=O)(=O)Nc3nc(C)cc(C)n3)cc2)cc1
    -16, -12
COC[C@H](Cc1ccccc1)NC(=O)C1CC1(c1ccccc1)c1ccccc1 (stereo partly drawn)
    -8, -14
COCCN(Cc1ccc(OC)cc1)c1c(C)nc2ccc(C(=O)Nc3cccc(OCC(=O)N(C)C)c3)cn12
    -3, -9
Cc1ccc(-c2cc3c(=O)n(CC(=O)Nc4cc(F)ccc4F)ncn3n2)cc1C
    -7, -14
CC(C)(C)c1nc2cc(Cl)c([N+](=O)[O-])cc2o1
    25, 17
CC(C)(C)c1ncc2c(n1)CN(C(=O)c1ccc(-n3cnnn3)cc1)C2
    2, -1
COc1ccc(CC2NC(=O)c3cnc(-c4cccc(C)c4)nc32)cc1 (stereo not drawn)
    4, 0
COC(=O)c1ccccc1NC(=O)CSc1nccn2nc(-c3cccc4ccccc34)cc12
    -3, -6
Cc1ccc(C(=O)N2CCCN(C)C3(CCN(C)CC3)C2)c2ccccc12
    21, 10
CC(C)c1nc(C(C)NC(=O)c2ccc3[nH]c(=O)[nH]c3c2)cs1 (stereo not drawn)
    4, 1
COc1cccc(NC(=O)Cn2nc(C3CC3)c3cnn(-c4ccccc4C)c3c2=O)c1
    0, 1
CCOC1CC(N(C)C(=O)c2cnc[nH]2)C1(CC)CC (stereo not drawn)
    9, 5
CN(CC1OCCO1)C(=O)c1cccnc1Oc1ccc(Cl)cc1
    0, -2
O=S(=O)(NCc1ccccc1)N1CCC(Oc2ccncc2)CC1
    5, 2
CC(c1ccc(F)c(F)c1)N(C)CCN1C(=O)c2ccccc2C1=O (stereo not drawn)
    0, -2
CCC(C)C(NC(=O)Nc1ccc(SC)cc1)C(=O)Nc1nnc(-c2ccc(C)cc2)s1 (stereo not drawn)
    26, 33
CCCC1(C2CCN(C(=O)[C@H]3C[C@@H]4C=C[C@H]3C4)CC2)NC(=O)N(CCc2cccs2)C1=O (stereo partly drawn)
    31, 10
O=C(c1ccc(CSc2nc(-c3ccccc3)cc(N3CCN(c4cccc(C(F)(F)F)c4)CC3)n2)cc1)N1CCOCC1
    3, 9
CSc1sc(NC(=O)Cn2cc(C)cn2)nc1C
    5, 5
Cc1cc(F)ccc1NS(=O)(=O)c1ccccc1Br
    6, 2
O=C(c1cc2c([nH]c1=O)CCC2)N1CCC(CN2CCc3ccccc32)CC1
    0, 17
CCS(=O)(=O)N1CCCC(c2nc3c4sc5nc(C(F)F)cc(C)c5c4ncn3n2)C1 (stereo not drawn)
    -4, -5
C=C(C)COc1ccccc1C(=O)N1CCN(CC(=O)O)C(=O)C1C (stereo not drawn)
    25, 11
CC(C)OCCCNc1ncnc2c1c(-c1ccccc1)cn2-c1ccccc1
    -4, -6
CCOc1ccc(-c2ccc(=O)n(CCNS(=O)(=O)c3ccc(C(F)(F)F)cc3)n2)cc1
    -1, -1
CCOC(=O)c1[nH]c(CN(C)CC(=O)Nc2ccc(Cl)cc2)c(C(=O)OCC)c1C
    0, -1
CC(=O)N1CCCn2nc(C(=O)N3CCC(N)C3)cc2C1 (stereo not drawn)
    16, 13
CC(=O)OCC(CCn1cnc2cnc(N)nc21)COC(C)=O
    -3&-10, -8&-11
CCSCC(=O)N1CCC(n2c(Cc3ccccc3)nc3ccccc32)CC1
    -5, -10
Cc1oc(C)c(C(=O)NC2CCN(C(C)C)CC2)c1C
    1, -1
CC1(Cc2ccc(C(F)(F)F)nc2)C(=O)Nc2c(Cl)ccc(Cl)c21 (stereo not drawn)
    6, 4
Cc1nc2n(n1)CCN(C(=O)C(CC(C)C)NC(=O)c1ccccc1C)C2 (stereo not drawn)
    5&1, 1&0
O=C(CCOc1ccc(Cl)cc1)N1CCOC(COc2ccc(F)cc2)C1 (stereo not drawn)
    23, 16
COc1cccc(OCCN2CCN(c3ncnc4c3cnn4-c3ccccc3)CC2)c1
    5, 6
O=C(Nc1nc2c(s1)CN(Cc1ccccc1)CC2)c1cc(F)ccc1F
    9, 8
CN1N=C(C(=O)N2CCCC(CNC(=O)c3ccc(-c4ccccc4)cc3)C2)CCC1=O (stereo not drawn)
    9, 1
CC(C)(C)c1cc2nc(C(=O)N3CCN(c4cccc(Cl)c4)CC3)cc(-c3ccccc3F)n2n1
    7&16, 5&29
O=C(CN=C1NS(=O)(=O)c2ccccc21)NC1CCCCCC1
    15, 8
O=C(CSc1nc2ccccc2o1)Nc1ccc(Cl)cc1Cl
    0, -7
CCCCCC(=O)Nc1sc2c(c1C(=O)O)CCC2
    -5, -6
Cc1cc2cc(CNC(=O)CCC3CCCC3)ccc2[nH]1
    6, 2
COc1ccc(C2CC(=O)c3cc([N+](=O)[O-])ccc3O2)cc1 (stereo not drawn)
    1, 1
CCCOC(=O)C1C2C=CC3(CN(CCCOC)C(=O)C13)O2 (stereo not drawn)
    0, -3
Cc1sc2ncn(N=CN(C)C)c(=O)c2c1C
    -3, 5
COC(=O)NCCC(=O)N(c1ccccc1)C1Cc2ccccc2C1
    -7, -6

(list continues)
Values run as follows: NPYLR7 agonist, NPYLR7 agonist max-min
COc1ccc(C(CN(C)C)NC(=O)C2CC(=O)N(C)C2)cc1OC (stereo not drawn)
    8, -14
Cc1ccc(NC(=O)N(CC(=O)N(Cc2ccccc2)Cc2ccc(C)o2)CC(C)C)c(C)c1
    -3, 1
CC[C@@]1(C(=O)OC)C[C@H](C(=O)NCc2ccon2)[C@H](c2ccc(OC)cc2)N1C
    4, 0
CN1CCN(S(=O)(=O)c2ccc(NC(c3ccccc3)C3CC3)c([N+](=O)[O-])c2)CC1 (stereo not drawn)
    13, 12
O=C(CC1CSc2nc3c(c(=O)n21)CCCC3)NCc1ccc2c(c1)OCO2 (stereo not drawn)
    -2, -3
COc1cccc([C@@H]2CCCN(c3nc(-c4ccncc4)nc4c3CNC4)C2)c1
    0, 7
CCOC(=O)c1nn(-c2ccccc2Cl)c(=O)cc1OS(=O)(=O)c1ccc(OC)c(C)c1
    -5, -1
Cc1ccc(CC2SC(N)=NC2=O)cc1 (stereo not drawn)
    -2, -2
COC(=O)C1=C(C)NC(C)=C(C(=O)OC)C1c1cccc(Br)c1
    13, 11
COc1ccc(OC)c(C2c3cccn3-c3ccccc3N2C(=O)CN(C(=O)NCc2ccccc2)C(C)C)c1 (stereo not drawn)
    11, 10
CN(C)C(=O)c1ccc(-c2ccc(COCCN)cc2)cc1
    -4, -8
CCc1ccc(N2CC(O)(c3cccs3)[N+]3=C2CCCCC3)cc1 (stereo not drawn)
    -2, 0
CC(C)CN(CC(C)C)C(=O)CN1C(=O)NC2(CCC(C)CC2)C1=O (stereo not drawn)
    0, -1
CC(=O)O[C@@H](C)C(=O)N1CCN(c2nc3nccc(-c4ccc(C(C)(C)C)cc4)n3n2)CC1
    25, 12
Cc1cc(OCc2cccc(F)c2)ccc1NC(=O)N1CCOCC1
    6, 5

Random excerpt: 7 records from the list, in no set order.
Values run as follows: NPYLR7 agonist, NPYLR7 agonist max-min
COc1cccc([C@@H]2CCCN(c3nc(-c4ccncc4)nc4c3CNC4)C2)c1
    0, 7
CC(C)CN(CC(C)C)C(=O)CN1C(=O)NC2(CCC(C)CC2)C1=O (stereo not drawn)
    0, -1
Cc1ccc(NC(=O)N(CC(=O)N(Cc2ccccc2)Cc2ccc(C)o2)CC(C)C)c(C)c1
    -3, 1
COc1ccc(OC)c(C2c3cccn3-c3ccccc3N2C(=O)CN(C(=O)NCc2ccccc2)C(C)C)c1 (stereo not drawn)
    11, 10
CCc1ccc(N2CC(O)(c3cccs3)[N+]3=C2CCCCC3)cc1 (stereo not drawn)
    -2, 0
CC(=O)O[C@@H](C)C(=O)N1CCN(c2nc3nccc(-c4ccc(C(C)(C)C)cc4)n3n2)CC1
    25, 12
COc1ccc(C(CN(C)C)NC(=O)C2CC(=O)N(C)C2)cc1OC (stereo not drawn)
    8, -14

The listing continues.
Values run as follows: NPYLR7 agonist, NPYLR7 agonist max-min
CC(C)c1ccccc1NC1=NS(=O)(=O)c2ccccc21
    9, 7
COC(=O)c1sc(NC(=O)c2cc(OC)c(OC)c(OC)c2)nc1C
    0, 4
CCCCOc1ccc(C(=O)Nc2ccc(-n3nc(OCC(C)C)nc3-c3ccccc3F)cc2)cc1
    14, 14
CC(NC(=O)C=Cc1cccs1)C1CC2CCC1C2 (stereo not drawn)
    -3, -4
COCCN(Cc1c(-c2ccccc2)noc1N1CCSCC1)CC(O)COCc1ccco1 (stereo not drawn)
    -4, 6
O=C(NCc1cccc(F)c1)C(C1CCCC1)N1CCN(C(=O)c2ccc(C(F)(F)F)cc2)CC1 (stereo not drawn)
    0, 9
Cn1cnnc1Sc1ccc(-c2nccn2-c2ccc3c(c2)COC3)o1
    4, 1
Cc1ccnc(SCc2cc(=O)c(OC(=O)C(C)(C)Oc3ccc(Cl)cc3)co2)n1
    -11, -6
O=C(O)Cn1nnc(-n2cccn2)n1
    -9, -13
CN(Cc1cccc(F)c1)C(=O)C1CCN(S(=O)(=O)c2ccc3c(c2)CCC3)CC1
    0, 6
COc1ccc2cc(COC(=O)C3CC(=O)N(C4CC4)C3)ccc2c1 (stereo not drawn)
    1, -1
CN(Cc1cc(-c2cccnc2)no1)C(=O)[C@@H]1C[C@H]1c1ccccc1
    5, 4
O=C1NC(=S)N/C1=C/C=C/c1ccccc1
    -12, -14
Cc1noc(C)c1CN(C)C(=O)C1CNCCO1 (stereo not drawn)
    -9, -13
Cc1nn(C)c(Cl)c1S(=O)(=O)NC12CC3CC(CC(C3)C1)C2
    3, 0

4 entries out of the list, arranged by molecular weight, low to high:
Values run as follows: NPYLR7 agonist, NPYLR7 agonist max-min
CN(Cc1cc(-c2cccnc2)no1)C(=O)[C@@H]1C[C@H]1c1ccccc1
    5, 4
COc1ccc2cc(COC(=O)C3CC(=O)N(C4CC4)C3)ccc2c1 (stereo not drawn)
    1, -1
Cc1ccnc(SCc2cc(=O)c(OC(=O)C(C)(C)Oc3ccc(Cl)cc3)co2)n1
    -11, -6
CCCCOc1ccc(C(=O)Nc2ccc(-n3nc(OCC(C)C)nc3-c3ccccc3F)cc2)cc1
    14, 14

Remaining list, next part.
Values run as follows: NPYLR7 agonist, NPYLR7 agonist max-min
O=C(c1cccs1)N1CCCC(N2CCN(c3cccc(C(F)(F)F)c3)CC2)C1 (stereo not drawn)
    1, -2
O=C(Nc1ccc(SCc2ccc(F)cc2)nn1)c1cccs1
    14, 3
CSc1ccc(C)cc1S(=O)(=O)O
    -1, -1
COCCN(CC(=O)N(CCc1ccc(OC)c(OC)c1)Cc1sccc1C)C(=O)c1ccc([N+](=O)[O-])cc1
    0, 2
Cc1ccccc1C(NC(=O)C1CCN(Cc2cccc(Cl)c2)CC1)c1ncccc1C (stereo not drawn)
    -18, -22
Cc1ccc(C)c2sc(N3CCN(C(=O)C4CCN(S(C)(=O)=O)CC4)CC3)nc12
    -2, -4
O=C(NCC(=O)N1CCOC(COc2ccc(F)cc2)C1)c1cccc(C(F)(F)F)c1 (stereo not drawn)
    3, 0
CC(C)c1cc(=O)n2c(n1)SCC2CC(=O)O (stereo not drawn)
    0, -2
CSc1nc(Sc2nnc(C)s2)cc(Sc2nnc(C)s2)n1
    -4, -4
Cc1ccccc1C(OCC(O)CN1C(=O)C2CCCCC2C1=O)c1ccccc1 (stereo not drawn)
    -3, -3
COC(=O)c1ccc(NC(=O)c2cc(=O)c(OCc3ccccc3)c[nH]2)cc1
    7, 4
Cc1ccc(F)cc1CC(=O)NCc1nc2c(C)cccc2[nH]1
    0, 1
O=C(c1ccc2c3c(cccc13)CC2)C1CCCN(C(=O)c2cn3ccccc3n2)C1 (stereo not drawn)
    6, -4
Cc1nonc1CN(C)C(=O)c1coc(COc2cccc(C(F)(F)F)c2)n1
    5, 3
Cc1nc(CCC(=O)NC(CN2CCCC2)C(C)(C)C)n[nH]1 (stereo not drawn)
    0, 0
Cc1ccc(C(CC(=O)NCCc2ccccn2)c2ccccc2)cc1 (stereo not drawn)
    21, 9
O=C(NCc1csc(C2CC2)n1)C1CC1c1cccc(F)c1 (stereo not drawn)
    2, 3
CC(C)Cn1c(N2CCN(CCCc3ccccc3)CC2)nc2c1c(=O)[nH]c(=O)n2C
    -2, -3
Cc1ccc(N2C(=O)CC(NCCc3ccccc3Cl)C2=O)cc1 (stereo not drawn)
    -6, -12
COc1ccccc1C(=O)Nc1ccc(C2SCC(=O)N2c2ccc3c(c2)CCC3)cc1 (stereo not drawn)
    -3, 1
CCN(CC)c1ccc2cc(-c3nnc(-c4ccccc4Cl)o3)c(=O)oc2c1
    1, -5
C=CCn1cc(CN(Cc2sccc2C)C2CC2)c(C)n1
    3, 2
